Screening data (PubChem)
VDR inh = blocks the human vitamin D receptor; P11473; VDR-SRC2-3 peptide fluorescence polarization, 2 h; Potency, µM, for inactives: max response, negative = inhibition, actives largely listed as inhibitors; 400,000 tested, 0.93% active; active = well fitted inhibition curve with a large enough effect; inconclusive = small, poorly fitted or top-dose-only effect, or another doubt; inactive = no such curve, though single readings can be large or run the other way; note: series mostly up to about 120 µM
Target sequence (P11473 whole entry, looked up): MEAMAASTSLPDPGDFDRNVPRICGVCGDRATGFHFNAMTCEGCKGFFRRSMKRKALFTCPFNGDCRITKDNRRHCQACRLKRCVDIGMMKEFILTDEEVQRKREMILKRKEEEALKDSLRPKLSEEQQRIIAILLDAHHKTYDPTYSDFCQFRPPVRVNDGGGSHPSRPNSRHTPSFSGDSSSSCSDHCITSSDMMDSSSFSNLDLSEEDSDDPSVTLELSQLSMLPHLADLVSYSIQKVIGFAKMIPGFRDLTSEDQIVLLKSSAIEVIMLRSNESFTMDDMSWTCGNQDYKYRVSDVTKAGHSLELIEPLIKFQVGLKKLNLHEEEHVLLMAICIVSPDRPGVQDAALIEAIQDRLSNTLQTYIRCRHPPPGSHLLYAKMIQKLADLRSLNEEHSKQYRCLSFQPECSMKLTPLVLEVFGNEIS
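Fluorescence polarization assay measuring small-molecule disruption of VDR binding to the coregulator peptide SRC2-3. Compounds were pin-transferred (23 nl) into the reagent mix and incubated 2 h at room temperature before reading.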
Starred values were filed as active, the others as inactive; ? = inconclusive; & = joins results of further samples. % is set by controls: 0 for no effect and ±100 for the full control effect; potency is the fitted concentration of half-maximal effect. Not all compounds are listed. The share of hits here may be higher or lower than overall.

Structure | VDR inh
COc1cccc(CCC(=O)N2CCC(n3nccc3NC(=O)C3CCOC3)CC2)c1 (stereo not given) | 1%
c1ccc2c(c1)c1c3n2CCNC3CCC1 (stereo not given) | 16%
C(=N\c1nccs1)/c1cccnc1 | 1%
COc1ccc(C2CC(=O)C(C=NCCO)=C(O)C2)cc1OC (stereo not given) | 12%
c1cncc(-c2nc3ccccc3o2)c1 | 1%
Cc1ccc(CNC(=O)c2cc(=O)c3cc(C)ccc3o2)cc1 | -10%&2%
Cc1cc(C)n(-c2nc3c(c(=O)n(C)c(=O)n3C)n2CCO)n1 | -1%
CCOC(=O)CNC(=O)c1cn(CC(C)C)c(=O)c2cc(OC)c(OC)cc12 | 10%
COc1cc(C(=O)N2CCN(c3ccccc3OC)CC2)c([N+](=O)[O-])cc1OC | 2%
COc1ccc(C(=O)CCc2ccccc2)cc1 | 17%
CSc1ncccc1C(=O)OCC(=O)Nc1ccc2c(c1)CCC2 | 13%
Cc1nn(C)c(C)c1CN(C)C(=O)C1c2ccccc2Oc2ccccc21 | -5%
CN(Cc1cn(Cc2ccccc2)nc1-c1ccc2c(c1)OCO2)Cc1nccn1C | -22%
Cc1c(NC(=O)C(C)Sc2ccc3ccccc3n2)c(=O)n(-c2ccccc2)n1C (stereo not given) | -2%
CC(=O)C[C@H]1c2ccccc2S(=O)(=O)N1C1CCCCC1 | -7%
Cc1cccc(NC(=O)CN(C)C(C)C(=O)Nc2ccc(S(=O)(=O)N3CCCC3)cc2)c1C (stereo not given) | 1%
O=C(COC(=O)c1ccc[n+]([O-])c1)Nc1ccc(Cl)cc1[N+](=O)[O-] | -8%
NS(=O)(=O)c1cccc(NC(=O)CSc2nc3ccccc3c(=O)n2CC2CCCO2)c1 (stereo not given) | -8%
Cc1cc(F)ccc1S(=O)(=O)Nc1ccc(O)c(Sc2ncn[nH]2)c1 | -3%
COc1ccc(NC(=S)N2CCN(c3ncccn3)CC2)cc1 | -8%
N#CCC(=O)Nc1ccc(C(=O)Nc2cccnc2)cc1 | 10%
Oc1ccc2oc3c(c2c1/C=N/n1cnnc1)CCCC3 | -8%
N#CCCn1nc2c(c1N)CCC2 | 6%
CCOc1cc(/C=C/C(=O)O)ccc1OCCOc1ccc(F)cc1 | -3%
COCCNC(=O)C/C(C)=N/NC(=O)C(=O)NC1CCCCC1 | 4%
CC(=O)c1cnn(-c2ccccc2)c1C | 8%
Cc1ccc(OC(=O)c2cc(-c3ccc4c(c3)OCCO4)on2)c(C)c1 | 17%
CCOc1ccc(C(=O)NCC2OCCc3ccccc32)cc1 (stereo not given) | -5%
COc1cc(C(=O)Nc2ccc([N+](=O)[O-])cn2)cc(OC)c1OC | -18%
Cc1cccc(N2C(=O)/C(=C/c3ccccn3)SC2=S)c1 | -5%
Cc1cc(C)nc(SCC(=O)Nc2ncc3c(n2)CC(C)(C)CC3=O)n1 | -15%
Cn1c(=O)oc2cc(S(=O)(=O)NCc3ccncc3)ccc21 | 10%
COc1cccc(N2CCN(S(=O)(=O)c3ccc(-c4coc(C)n4)cc3)CC2)c1 | 9%
CCCCCc1nc2c(c(=O)c3ccccc3n2C)c(=O)n1Cc1ccc(OC)cc1 | -5%
Cc1nnsc1C(=O)N1CCN(c2cc(C(F)(F)F)ccn2)CC1 | -10%
COc1ccc(OC)c(C(=O)N2CCC(n3nccc3NC(=O)CC(C)C)CC2)c1 | -2%
CN(C)c1ccc(CNC(=O)C2CCN(c3nc4ccccc4[nH]3)CC2)cc1 | 10%
CNC(=S)N1CCc2cc(OC)c(OC)cc2C1COc1ccc(F)cc1 (stereo not given) | 4%
O=C(NCCOc1nc(N2CCCCC2)nc(N2CCOCC2)n1)Nc1ccccc1 | 13%
CC(=O)c1ccc2c(c1)N(CCCN1CCN(CCO)CC1)c1ccccc1S2 | -15%
O=C(NCC1CCCO1)c1onc(CSc2ccccc2F)c1C(=O)O (stereo not given) | -18%
C=CCN(Cc1nc(-c2cc(OC)c3c(c2)OCO3)oc1C)C1CCS(=O)(=O)C1 (stereo not given) | ?
O=C1C=C(O)c2cccc3cccc1c23 | 3%
Cc1ccc(N=Nc2c(C)[nH]n(-c3ccccc3)c2=O)c(C)c1 | ?
CCC1(C(=O)c2ccccc2)C(c2cccc([N+](=O)[O-])c2)C1(C(=O)OC)C(=O)OC (stereo not given) | -16%
O=c1c2cc3c(cc2[nH]c(=S)n1C1CCN(Cc2ccccc2)CC1)OCO3 | -17%
Cc1ccc(N(CC2CO2)S(=O)(=O)c2ccc([N+](=O)[O-])cc2)cc1 (stereo not given) | -7%
C=CCNC(=O)N1CCC(n2nccc2NC(=O)CCCc2ccccc2)CC1 | 21%
CCCCOc1ccc(Nc2cc(Cl)ccc2C(=O)O)cn1 | -15%
CCCC(c1nnnn1CCOC)N(Cc1cc2cc(C)c(C)cc2[nH]c1=O)CC1CCCO1 (stereo not given) | -3%
COc1ccc(CC(=O)Nc2ccccc2C(=O)NCCc2ccccc2)cc1 | 1%
O=C(O)c1cc(C2CC2)nn1-c1ccccc1 | 4%
CCC(=O)N1CCN(c2ccc(Cl)cc2NC(=O)Cc2ccc(Cl)cc2)CC1 | -14%
CCOC(=O)Cc1csc(SCC(=O)Nc2cccc(Cl)c2)n1 | 11%
CC(C)(C)OC(=O)N1CCC(c2c(C(=O)NCCN3CCc4ccccc4C3)cnn2-c2ccc(F)cc2)CC1 | 7%
CCN(CC)C(=O)CSc1nnc(-c2c[nH]c3ccccc23)o1 | -16%
Cn1nnnc1SCCNC(=O)C1CCC(=O)N(Cc2ccc(Cl)cc2)C1 (stereo not given) | 3%
Cc1ccc(-c2ccc(C(=O)O)c(C)n2)cc1 | -8%
CCCCSc1nnc2[nH]c(=O)cc(C)n12 | 14%
O=C(c1ccc(C23CC4CC(CC(C4)C2)C3)o1)N1CCOCC1 | 7%

The list continues.
Structure | VDR inh
CS(=O)(=O)N(CC(=O)N1CCN(c2cccc(Cl)c2)CC1)c1ccccc1 | 6%
COc1ccc([C@H]2[C@@H]3C=CCC[C@@]3(C)C(=O)N2Cc2ccccc2)cc1Cl | -29%
Cc1cnc(CNc2ccnc(-c3ccccc3C)n2)cn1 | -16%
Cc1cc(C)cc(N(C(=O)Cc2cccs2)C(C(=O)NC2CCCC2)c2ccc(C)o2)c1 (stereo not given) | -3%
CCOc1ccc(CNCc2cccnc2)cc1 | -12%
Cc1ccc(C(=O)NCCc2nnc3ccc(SCC(=O)NCc4ccc(F)cc4)nn23)cc1 | 15%
CCc1ccccc1NC(=O)CN(C)C(=O)CN1C(=O)NC2(CCCCCC2)C1=O | 10%
CC(NC(=O)COC(=O)c1cc(Cl)nc(Cl)c1)c1ccccc1 (stereo not given) | -18%
CCOC(=O)C1=C(N)Oc2c(oc(CO)cc2=O)C1c1ccc(F)c(F)c1 (stereo not given) | -4%
Cn1c2ccccc2c(=O)c2ccc(NCCc3cccs3)cc21 | -10%
COc1ccccc1C1(O)CCN(CCCn2c3ccccc3c3ccccc32)CC1 | -1%
CC(Sc1nc2ccccc2n1C)C(=O)NC(c1ccccc1)c1ccccc1 (stereo not given) | 2%
CCc1cc2c(SCC(=O)Nc3ncc(Cl)c(C)c3Cl)ncnc2s1 | -2%
COc1ccc(N(CC(=O)NCc2ccc(Cl)cc2)S(=O)(=O)c2ccccc2[N+](=O)[O-])c(OC)c1 | 5%
O=c1[nH]c(=O)n(C2OC(CO)C(O)C2O)cc1N1CCOCC1 (stereo not given) | -5%

Structures listed so far that have two or more sulfur atoms:
Structure | VDR inh
NS(=O)(=O)c1cccc(NC(=O)CSc2nc3ccccc3c(=O)n2CC2CCCO2)c1 (stereo not given) | -8%
Cc1cc(F)ccc1S(=O)(=O)Nc1ccc(O)c(Sc2ncn[nH]2)c1 | -3%
Cc1cccc(N2C(=O)/C(=C/c3ccccn3)SC2=S)c1 | -5%
CCOC(=O)Cc1csc(SCC(=O)Nc2cccc(Cl)c2)n1 | 11%
CCc1cc2c(SCC(=O)Nc3ncc(Cl)c(C)c3Cl)ncnc2s1 | -2%

Remaining list, next part:
Structure | VDR inh
CN(Cc1nc(-c2ccc(Cl)cc2)no1)C(=O)CCN1C(=O)[C@H]2CC=CC[C@H]2C1=O | 2%
CCOC(=O)C1=C(COC(=O)CSc2ccc(C)cc2)NC(=O)NC1C (stereo not given) | 6%
CCCn1nnc(NC(=O)COc2cc(C)ccc2C(C)C)n1 | 1%
COc1cccc(OCCCN2CCCCCC2)c1 | -10%
COc1ccc2c(c1)cc1c(=O)n(CC(=O)NCCCN3CCOCC3)nc(C)n12 | -5%
Cc1ccc(C(=O)O)cc1Nc1nc2ccccc2n2nnnc12 | 2%
Cc1ccc(S(=O)(=O)Nc2cccc(-c3cn4cccc(C)c4n3)c2)cc1 | -5%
Cc1c(CCOC(=O)CC23CC4CC(CC(C4)C2)C3)sc[n+]1Cc1ccccc1 | 12%
O=C(c1ccccn1)N(Cc1ccco1)C1(C(=O)NC2CCCC2)CCCCC1 | -5%
COc1cccc(-c2nc3c(c(SCc4ccccc4)n2)Cc2c(CO)cnc(C)c2O3)c1 | 13%
CCN(C(=O)COC(=O)c1c(C)nsc1NC)c1ccccc1 | -1%
CCC(=O)N1CCN(c2ccc(NC(=O)COc3ccc(C)cc3C)cc2)CC1 | 7%
Cc1ccc(CSc2nc3c(c(=O)[nH]c(=O)n3C)n2CCC(C)C)cc1 | -12%
S=c1[nH]nc(Cc2cccs2)n1-c1ccccc1 | -10%
CCN(CC)S(=O)(=O)c1ccc(N(C)Cc2cccc(OC)c2OC)nc1 | 4%

Among those listed so far, two contain a cyano group.
Structure | VDR inh
N#CCC(=O)Nc1ccc(C(=O)Nc2cccnc2)cc1 | 10%
N#CCCn1nc2c(c1N)CCC2 | 6%

The listing continues:
Structure | VDR inh
COc1cccc(CN(C)CCCn2ccc(NC(=O)OCc3ccccc3)nc2=O)c1 | 2%
CC(C)CC1NC(=O)N(CC(=O)NC2CCCc3ccccc32)C1=O (stereo not given) | -6%
Cc1ccccc1C(=O)NCC(=O)OC(C)C(=O)NC(C)CCc1ccccc1 (stereo not given) | -3%
COc1ccc(-c2cncnc2-c2ccc(OC)cc2O)cc1 | 10%
COc1ccccc1N1CCN(C(=O)CNC(=O)c2ccc(Cl)cc2Cl)CC1 | 19%
CCCOC(=O)c1ccc(Nc2nc3ccccc3nc2-n2nc(C)cc2C)cc1 | 7%
COc1ccc(NC(=O)CN(c2ccccc2OC)S(C)(=O)=O)c(OC)c1 | -16%
Cc1ccc2nc3c(cc(C(=O)NCc4ccccc4)c(=N)n3CCCn3ccnc3)c(=O)n2c1 | -7%
Cc1ccnc(NC(=O)c2cc(S(=O)(=O)NCc3ccccc3)ccc2C)c1 | 11%
CCCCC1C2=C(CCCC2=O)OC2=C1C(=O)CCC2 | -19%
COC(=O)CCC(=O)NNC(=O)c1ccc(Cl)cc1Cl | -3%
CCN(c1ccccc1)S(=O)(=O)c1cc(C(=O)OC2CCOC2=O)ccc1C (stereo not given) | 5%
O=C(Nc1ccc2oc(=O)c(C(=O)O)cc2c1)Oc1ccccc1 | 13%
CCCCNC(=O)c1[nH]c2ccccc2c1Sc1ccc(C)cc1 | 17%
CCOC(=O)c1sc(Nc2ccc(Br)cc2)nc1C | -12%
CCc1cc2c(=O)c(-c3nc4ccccc4n3C)coc2c(CN2CCCCC2)c1O | -3%
COc1ccc(-n2nc3c(c2NC(=O)c2c(F)cccc2Cl)CS(=O)C3)cc1 (stereo not given) | 8%
NC(=O)c1ccc(-n2c(CCC(=O)O)ccc2-c2cccs2)cc1 | -19%
Cc1ccc(Cl)c(OCC(O)CN(CCO)CCO)c1 (stereo not given) | -10%
Cc1cccc(OCCNc2nc3c(c(=O)n(C)c(=O)n3C)n2C)c1 | 2%
Nc1cc(=O)[nH]c(SCC(=O)Nc2ccc(Oc3ccccc3)cc2)n1 | -10%
COC(=O)CNC(=O)CCc1nnc(C2(c3ccc(Cl)cc3)CCC2)o1 | -14%
CCN1C(=O)[C@H]2[C@@H](c3ccc(OC)cc3)N3C(=O)CN(CCOC)C(=O)[C@@]3(C)[C@H]2C1=O | ?
Cc1ccc(-n2c(Cc3cccn3C)nnc2SCC(=O)Nc2nnc(C)s2)cc1 | -10%
COC(=O)CN1CC(=O)N(c2ccccc2)C1=S | -3%
CCN(Cc1ccncc1)C(=O)c1cccc(S(=O)(=O)N2CCCCC2)c1 | 17%
COc1ccc([C@@H]2CC=C(C(=O)O)[C@H](c3ccc(F)cc3)N2S(=O)(=O)c2ccccc2C)cc1 | -22%
CCOC(=O)Nc1ccc2c(c1)N(C(=O)OC)c1ccccc1CC2 | -17%
COc1ccc(Nc2cc(Cl)nc(N)n2)cc1 | -12%
CCS(=O)(=O)N1CCC(C(=O)NCCCN2CCN(c3ccccc3F)CC2)CC1 | 3%
CC(C)Cc1nnc(NC(=O)CN2C(=O)NC3(CCCCC3)C2=O)s1 | 9%
O=C1N[C@@H](Cc2ccccc2)C(=O)N2[C@H]1C[C@]1([C@]34C[C@H]5C(=O)N[C@@H](Cc6ccccc6)C(=O)N5[C@H]3N(S(=O)(=O)c3ccccc3)c3ccccc34)c3ccccc3N(S(=O)(=O)c3ccccc3)[C@H]21 | -2%
CC1(C)CC(=O)C2=C(C1)Oc1ncn(CCCO)c(=N)c1C2c1ccccc1 (stereo not given) | -6%
